Screening results from PubChem BioAssay.
MLL AF4-AF9 inh – inhibitors of human MLL-AF4/AF9 interaction. AlphaScreen, biotin-AF4 peptide binding to FLAG-AF9. 350,000 compounds, 0.47% hits. inhibition, % at 10 µM. P42568;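 active = every replicate reaching a set inhibition limit, whatever the replicate mean, cut at about 25% in these data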;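 note: 0% = plate neutral control median and 100% = total signal loss; the record names both 10 and 1 µM as test concentration; the first replicate is given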
Target sequence (P42568 whole entry, looked up): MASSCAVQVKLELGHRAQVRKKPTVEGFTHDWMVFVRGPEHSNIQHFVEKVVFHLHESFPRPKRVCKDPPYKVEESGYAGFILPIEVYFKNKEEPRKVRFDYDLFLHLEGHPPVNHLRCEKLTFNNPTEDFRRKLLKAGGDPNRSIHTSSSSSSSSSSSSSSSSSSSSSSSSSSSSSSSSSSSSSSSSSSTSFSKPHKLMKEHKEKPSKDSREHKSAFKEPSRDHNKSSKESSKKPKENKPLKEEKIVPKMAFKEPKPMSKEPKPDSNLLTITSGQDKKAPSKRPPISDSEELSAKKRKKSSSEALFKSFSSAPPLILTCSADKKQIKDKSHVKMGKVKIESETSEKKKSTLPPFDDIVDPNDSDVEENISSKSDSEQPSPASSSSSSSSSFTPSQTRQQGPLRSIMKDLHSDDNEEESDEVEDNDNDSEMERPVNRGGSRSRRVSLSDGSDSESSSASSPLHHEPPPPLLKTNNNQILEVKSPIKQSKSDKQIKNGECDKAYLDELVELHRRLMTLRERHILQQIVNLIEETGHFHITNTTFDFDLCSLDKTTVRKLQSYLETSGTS
Ecoli rRNA inh – selective bacterial rRNA inhibition in E. coli | E. coli WT GFP vs humanized-ribosome RFP mutants, fluorescence, 24 h; stronger effect = lower value; DMSO median 0, no signal -100 | GFP signal change (wild-type ribosome), % (test concentration not listed) | 350,000 compounds, 1.6% hits | AID 720706;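 active = significant combined selectivity score with lowered wild-type GFP, culture density cut under 30%, mutant RFP and density less affected; inactive = any of these conditions unmet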; note: one replicate is shown; some compounds called inactive have numbers as strong as hits
Ecoli rRNA inh OD600 – second read-out of Ecoli rRNA inh, no call of its own (marks repeat the call); OD600 change, %; measured here: OD600 growth;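 optical density of the mix in the first replicate; 0 = DMSO median and -100 = no signal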
Ecoli rRNA inh RFP – second read-out of Ecoli rRNA inh, no call of its own (marks repeat the call); RFP signal change, %; measured here: RFP humanized mutant strains;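 first replicate; 0 = DMSO median and -100 = no signal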
Starred values were filed as active, the others as inactive; & = joins results of further samples. Only part of the results is shown; count on the stated rates, not on these rows.

Below each compound – MLL AF4-AF9 inh	Ecoli rRNA inh	Ecoli rRNA inh OD600	Ecoli rRNA inh RFP
C[C@H](CO)N1C[C@H](C)[C@@H](CN(C)C)Oc2cc(-c3ccc(F)cc3)ccc2S1(=O)=O
 : 1.7	1	7	-2.4
Cc1noc(C)c1S(=O)(=O)N(C)C[C@@H]1OCCCC[C@@H](C)Oc2ccc(NS(=O)(=O)c3ccccc3)cc2C(=O)N([C@@H](C)CO)C[C@H]1C
 : -2.7	-4	0	2.4
C[C@@H]1CN([C@@H](C)CO)C(=O)c2cccc(NC(=O)c3ccc(-c4nccs4)cc3)c2O[C@@H]1CN(C)C
 : -0.1	2	10	-2.1
C[C@H](CO)N1C[C@H](C)[C@H](CN(C)Cc2ccc(Oc3ccccc3)cc2)Oc2c(NS(=O)(=O)c3ccccc3)cccc2C1=O
 : -1.8	-1	1	3.1
COc1ccc(S(=O)(=O)N2CCCCN3[C@H](CO)[C@@H](c4ccc(C#CC(C)C)cc4)[C@H]3C2)cc1
 : 0.3	-51	-42	-3.5
COC(=O)C(C#N)(CCC(=O)c1ccccc1)CCC(=O)c1ccccc1
 : -1.3	0	6	-0.1
Cc1ccc(S(=O)(=O)N(C)C[C@@H]2Oc3c(NC(=O)Nc4ccc5c(c4)OCO5)cccc3C(=O)N([C@@H](C)CO)C[C@@H]2C)cc1
 : -6.4	-8	-14	0.9
CS(=O)(=O)N1[C@@H]2Cn3c(ccc(-c4ccccc4)c3=O)[C@H]1[C@@H](C(=O)NCC1CC1)[C@@H]2CO
 : -0.8	3	5	-0.6
C[C@H]1CN([C@@H](C)CO)C(=O)c2cc(NC(=O)Cc3ccccc3)ccc2O[C@@H]1CN(C)C
 : -2.1	4	0	-4.5
CCC(=O)Nc1ccc2c(c1)OC[C@H](C)N(Cc1cccc(F)c1)C[C@H](C)[C@H](OC)CN(C)C2=O
 : 1.9	-2	-1	0.2
Cc1ccc(-c2ccc([C@H]3[C@H](CO)N4CCCCN(S(=O)(=O)c5ccccc5C)C[C@@H]34)cc2)cc1
 : 2.0	-8	22	0.2
O=C(C[C@H]1CC[C@@H](NC(=O)C2CCOCC2)[C@H](CO)O1)NCc1ccncc1
 : -3.3	2	-2	-1.9
CO[C@H]1CN(C)C(=O)c2ccc(NC(C)=O)cc2OC[C@@H](C)N(Cc2ccc(F)cc2)C[C@H]1C
 : -0.9	-2	-5	-0.5
COc1ccc(-c2cn(CC[C@@H]3CC[C@@H](NC(=O)Cc4ccccn4)[C@H](CO)O3)nn2)cc1
 : 3.1	1	6	-3.1
C[C@H](CO)N1C[C@H](C)[C@H](CN(C)S(=O)(=O)c2cn(C)cn2)OCCCC[C@H](C)Oc2ccc(NS(=O)(=O)c3ccc(Cl)cc3)cc2C1=O
 : -11	-3	-1	0.8
CCCN(C)C[C@@H]1OCCCC[C@@H](C)Oc2ccc(NC(=O)CCCN(C)C)cc2C(=O)N([C@H](C)CO)C[C@@H]1C
 : 3.7	-3	7	-0.5
O=C(NCC(=O)N1CCCC1)NN=Cc1ccccc1O
 : -1.1	9	9	2.7
O=C(C1CCC1)N1C[C@@H]2[C@H](c3ccccc31)[C@H](CO)N2Cc1ccccc1
 : -0.9	-5	-9	0.7
O=C(c1ccco1)N1CCN(C2CN(CCc3ccccc3)S(=O)(=O)C2)CC1 (configuration not stated)
 : -8.4	2	10	-1.7
Cc1noc(C)c1NC(=O)NCC[C@H]1CC[C@@H](NC(=O)c2ccncc2)[C@H](CO)O1
 : 1.5	-2	3	-0.5
CCC(=O)Nc1ccc2c(c1)C(=O)N(C)C[C@H](OC)[C@@H](C)CN(Cc1ccncc1)[C@H](C)CO2
 : -3.7	3	5	-0.6
C[C@@H]1CN([C@H](C)CO)C(=O)c2cc(NS(=O)(=O)c3ccc(Cl)cc3)ccc2O[C@@H](C)CCCCO[C@@H]1CN(C)C
 : 0.4	1	4	2.5
CCCNC(=O)Nc1ccc2c(c1)C(=O)N(C)C[C@@H](OC)[C@@H](C)CN(Cc1ccc(-c3ccccn3)cc1)[C@@H](C)CO2
 : 5.8	-2	-7	-4.6
COc1ccc(S(=O)(=O)Nc2ccc3c(c2)CC(=O)N([C@H](C)CO)C[C@@H](C)[C@@H](CN(C)C)O3)cc1
 : -6.6	4	8	-0.9
CC(=O)Nc1ccc(NCCc2cccs2)cc1
 : -0.9	4	1	-0.5
CN(C)C(=O)C[C@H]1CC[C@@H](NC(=O)C2CCOCC2)[C@@H](CO)O1
 : -3.4	6	4	-2.1
COc1ccc(CN(C)C[C@@H]2Oc3c(NC(=O)Nc4ccc5c(c4)OCO5)cccc3C(=O)N([C@@H](C)CO)C[C@H]2C)cc1
 : -7.2	-2	-7	0.2
Cc1noc(C)c1NC(=O)Nc1ccc2c(c1)C(=O)N([C@@H](C)CO)C[C@H](C)[C@H](CN(C)S(=O)(=O)c1ccc(F)cc1)O2
 : -0.5	4	10	0.6
COCCNC(=O)C[C@H]1C=C[C@H](NC(=O)NC2CCCCC2)[C@@H](CO)O1
 : 1.8	-2	1	-0.5
N#Cc1ccc(-c2ccc([C@H]3[C@H](CO)N4C(=O)CN(C(=O)C5CC5)C[C@@H]34)cc2)cc1
 : 1.0	-1	8	-3.1
CN(C)c1ncnc2c1ncn2[C@H]1CN(Cc2ccco2)C[C@@H](CO)O1
 : -1.7	11	17	0.4
COc1ccc(S(=O)(=O)Nc2ccc3c(c2)C(=O)N([C@H](C)CO)C[C@H](C)[C@@H](CN(C)C(=O)Nc2ccc4c(c2)OCO4)OCCCC[C@H](C)O3)cc1
 : 4.2	-5	1	-2.3
C[C@@H]1CN([C@H](C)CO)C(=O)c2cc(NC(=O)Nc3ccccc3)ccc2O[C@H]1CN(C)S(C)(=O)=O
 : -1.9	5	6	-2.2
C[C@@H]1CCCCO[C@@H](CN(C)C(=O)c2ccccc2)[C@H](C)CN([C@@H](C)CO)C(=O)c2cc(NS(=O)(=O)c3ccc(Cl)cc3)ccc2O1
 : -2.5	-4	-5	0.3
Cc1noc(C)c1S(=O)(=O)Nc1ccc2c(c1)C(=O)N([C@@H](C)CO)C[C@H](C)[C@H](CN(C)C(=O)C1CCCCC1)OCCCC[C@H](C)O2
 : -1.5	1	-4	0.9
COC(=O)[C@H]1[C@H](CO)[C@H]2Cn3c(ccc(C4=CCCCC4)c3=O)[C@H]2N1C(=O)C1CCC1
 : -1.8	-2	-3	-0.2
CCCC#Cc1cnc2c(c1)C(=O)N([C@H](C)CO)C[C@H](C)[C@@H](CN(C)C(=O)c1ccccc1)O2
 : -0.2	1	-5	1.5
C[C@@H]1CN([C@H](C)CO)C(=O)c2cccc(NC(=O)C3CCOCC3)c2O[C@H]1CN(C)C(=O)NC1CCCCC1
 : -4.0	-1	1	-0.8
O=S(=O)(N[C@H]1CC[C@H](CCn2cc(C3(O)CCCC3)nn2)O[C@@H]1CO)c1ccc(Cl)cc1
 : 1.1	0	-23	-5.5
C[C@H]1CN([C@@H](C)CO)C(=O)Cc2cc(N(C)C)ccc2O[C@@H]1CN(C)S(C)(=O)=O
 : 4.9	-1	-5	-1.3
CCC(=O)Nc1ccc2c(c1)C(=O)N(C)C[C@H](OC)[C@@H](C)CN(Cc1ccccc1OC)[C@@H](C)CO2
 : -7.1	2	10	-3.5
C[C@@H]1CN([C@@H](C)CO)C(=O)c2cc(NC(=O)C3CCCCC3)ccc2O[C@@H](C)CCCCO[C@@H]1CN(C)C(=O)Nc1ccc(C(F)(F)F)cc1
 : -1.0	0	4	0.0
CCC(=O)N1CC2(CN[C@@H](CO)c3c2c2ccc(OC)cc2n3C)C1
 : 0.6	5	14	-4.0
C[C@@H]1CN([C@H](C)CO)C(=O)CCCn2cc(nn2)CO[C@H]1CN(C)S(=O)(=O)c1ccc(Cl)cc1
 : 0.9&3.4	0&16	0&6	0.2&0.5
CCOC1=C2[C@@H](CN(S(=O)(=O)c3ccc(C)cc3)[C@H]2c2cccc3ccccc23)[C@H]2C(=O)N(CC)C(=O)[C@H]2C1
 : -1.6	-1	-5	-2.3
C[C@@H]1CN([C@@H](C)CO)C(=O)c2cc(NC(=O)NC3CCCCC3)ccc2O[C@H]1CN(C)S(=O)(=O)c1ccc(Cl)cc1
 : -4.2	1	-6	-2.5
CO[C@@H]1CN(C)C(=O)c2ccc(NC(=O)C3CC3)cc2OC[C@@H](C)N(C(=O)NC(C)C)C[C@H]1C
 : -2.4	0	1	0.7
C[C@@H]1CN([C@@H](C)CO)C(=O)c2cc(NC(=O)Cn3cnnn3)ccc2O[C@@H]1CN(C)S(C)(=O)=O
 : 0.5	4	9	0.2
C[C@@H]1CN([C@@H](C)CO)C(=O)c2cc(NS(=O)(=O)c3ccccc3)ccc2O[C@@H](C)CCCCO[C@@H]1CN(C)C(=O)Nc1ccc(F)cc1
 : -3.0	-1	-4	-4.7
CC=Cc1ccc2n(c1=O)C[C@@H]1[C@@H](CO)[C@H](C(=O)N3CCC(Cc4ccccc4)CC3)N(CC)[C@H]21 (mixture of isomers)
 : -4.6	-11	-18	9.9
C[C@H]1CN([C@@H](C)CO)C(=O)c2cccc(NS(C)(=O)=O)c2O[C@H]1CN(C)Cc1ccc(C(F)(F)F)cc1
 : 1.4	-5	-7	-1.4
CO[C@H]1CC[C@H]2CCOc3c(C#N)cccc3C(=O)N(C)CCCC(=O)N(C)C[C@@H]1O2
 : -1.0	4	4	-2.0
COCCNc1nc(NCc2cc(-c3ccc(OC)cc3)no2)c2sccc2n1
 : 1.0	-44	-72	-16
CCOC(=O)C1=CCN(S(=O)(=O)c2ccccc2Cl)C1c1cccc(Cl)c1 (configuration not stated)
 : -1.7	-4	-23	-7.0
O=C(C[C@H]1CC[C@H]2[C@@H](COC[C@H](O)CN2C(=O)c2ccccc2)O1)NCCCN1CCOCC1
 : -1.1	1	8	24
O=C(NCc1cccc(Cl)c1)C1Cc2c(-c3ccccc3Oc3ccccc3)ccnc2O1 (configuration not stated)
 : 1.1	2	14	3.1
O=C(C[C@@H]1CC[C@H]2[C@@H](COC[C@@H](O)CN2Cc2ccc(Oc3ccccc3)cc2)O1)N1CCOCC1
 : 0.7	-1	-11	1.9
C[C@@H]1CN([C@@H](C)CO)S(=O)(=O)c2ccc(C#C[C@@H](C)O)cc2O[C@H]1CN(C)Cc1ccccc1
 : 3.2	-10	-25	14
COc1ccc2c3c(n(C)c2c1)[C@H](CO)N(C(=O)c1ccc(F)cc1)CC31CN(C(=O)Nc2ccc(F)cc2)C1
 : -3.7	-1	-3	0.7
CO[C@H]1CN(C)C(=O)c2cc(NC(C)=O)ccc2OC[C@H](C)N(C(=O)C2CCC2)C[C@H]1C
 : 1.9	3	2	-0.5

New compounds follow:
Below each compound – MLL AF4-AF9 inh	Ecoli rRNA inh	Ecoli rRNA inh OD600	Ecoli rRNA inh RFP
CO[C@@H]1CN(C)C(=O)c2ccc(NS(=O)(=O)c3ccc(C)cc3)cc2OC[C@H](C)N(C)C[C@@H]1C
 : -2.0	3	9	0.7
CCC(=O)N(C)C[C@H]1Oc2ncc(C#CCC3CCCC3)cc2C(=O)N([C@H](C)CO)C[C@@H]1C
 : 1.2	-1	-8	1.7
C[C@H]1CN([C@@H](C)CO)C(=O)c2cc(Br)cnc2O[C@H]1CN(C)C(=O)Nc1ccc(F)cc1
 : -1.1	4	8	-2.8
O=C(C[C@H]1C[C@H]2c3cc(NC(=O)C4CCC4)ccc3O[C@H]2[C@H](CO)O1)NCc1cccc(F)c1
 : 0.1	3	-3	0.3
C[C@H](NC(=O)C[C@@H]1C[C@H]2c3cc(NC(=O)c4cccnc4)ccc3O[C@H]2[C@@H](CO)O1)c1ccccc1
 : 1.9	0	-1	-2.2
C[C@H]1COc2cccc(N3CCSCC3)c2S(=O)(=O)N1
 : 0.7	16	10	3.8
C[C@H]1CN([C@@H](C)CO)C(=O)c2cccc(NC(=O)Nc3ccccc3)c2O[C@@H]1CN(C)C(=O)NC1CCCCC1
 : -8.9	-1	3	-1.8
C[C@H](CO)N1C[C@H](C)[C@@H](CN(C)C(=O)Nc2ccc(F)cc2)Oc2ccc(NC(=O)CCCCCC(=O)Nc3ccccc3N)cc2CC1=O
 : -5.0	6	7	1.8
CCOC1=C2CN(S(=O)(=O)c3ccc(C)cc3)[C@H](c3ccccc3)C[C@@H]2N(S(=O)(=O)c2ccc(Br)cc2)[C@H](c2ccccc2)C1
 : -1.9	6	20	2.9
CO[C@H]1CC[C@H]2CCN(C)C(=O)[C@H](C)[C@@H](OC)CN(C)C(=O)c3cccc(C#N)c3OC[C@@H]1O2
 : 2.2	4	1	-2.0

Rewritten as comma-separated lines: part of the list above
SMILES,MLL AF4-AF9 inh,Ecoli rRNA inh,Ecoli rRNA inh OD600,Ecoli rRNA inh RFP
O=C(C[C@H]1C[C@H]2c3cc(NC(=O)C4CCC4)ccc3O[C@H]2[C@H](CO)O1)NCc1cccc(F)c1,0.1,3,-3,0.3
C[C@H](NC(=O)C[C@@H]1C[C@H]2c3cc(NC(=O)c4cccnc4)ccc3O[C@H]2[C@@H](CO)O1)c1ccccc1,1.9,0,-1,-2.2
C[C@H]1COc2cccc(N3CCSCC3)c2S(=O)(=O)N1,0.7,16,10,3.8
